# Source: PubChem BioAssay
# TRPML1 blocker – inhibitors of human TRPML1 channel; 390,000 tested, 0.02% active; activity change, negative = inhibition, % (concentration not given with the values); TRPML1-inducible cells, Ca2+ dye fluorescence, FDSS; stronger effect = lower value; inhibition of EC80 agonist-evoked calcium signal; Q9GZU1; AID 624415; in the data active means activity change below about -50%; inconclusive means about -30% to -50%; inactive means above about -30%;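 also: stimulus is agonist 54-4 at its EC80 concentration; % is scaled to controls: 0 for no effect and ±100 for the full control effect; compound concentration not given in the record; the text of the record puts the active cut at -80%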
#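 Tet-induced TRPML1-DL cells loaded with Ca8 no-wash calcium dye were read kinetically on FDSS. Compound addition was followed by EC80 agonist 54-4 (4 uM final); inhibition was read over 110 s.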
# TRPV1 potentiator – enhances activation of the human vanilloid receptor TRPV1; Q8NER1; TRPV1-expressing cells, Fluo-8 calcium influx, capsaicin EC20 potentiation; host cell line not named in the record; control for the full effect not named in the record; potentiation, % at 8.33 µM; 320,000 tested, 0.02% active; AID 540277; active means potentiation above 80%; inconclusive means 30% to 80%; inactive means below 30%; also: 0% is about no effect
# Target sequence (Q8NER1 whole entry, looked up): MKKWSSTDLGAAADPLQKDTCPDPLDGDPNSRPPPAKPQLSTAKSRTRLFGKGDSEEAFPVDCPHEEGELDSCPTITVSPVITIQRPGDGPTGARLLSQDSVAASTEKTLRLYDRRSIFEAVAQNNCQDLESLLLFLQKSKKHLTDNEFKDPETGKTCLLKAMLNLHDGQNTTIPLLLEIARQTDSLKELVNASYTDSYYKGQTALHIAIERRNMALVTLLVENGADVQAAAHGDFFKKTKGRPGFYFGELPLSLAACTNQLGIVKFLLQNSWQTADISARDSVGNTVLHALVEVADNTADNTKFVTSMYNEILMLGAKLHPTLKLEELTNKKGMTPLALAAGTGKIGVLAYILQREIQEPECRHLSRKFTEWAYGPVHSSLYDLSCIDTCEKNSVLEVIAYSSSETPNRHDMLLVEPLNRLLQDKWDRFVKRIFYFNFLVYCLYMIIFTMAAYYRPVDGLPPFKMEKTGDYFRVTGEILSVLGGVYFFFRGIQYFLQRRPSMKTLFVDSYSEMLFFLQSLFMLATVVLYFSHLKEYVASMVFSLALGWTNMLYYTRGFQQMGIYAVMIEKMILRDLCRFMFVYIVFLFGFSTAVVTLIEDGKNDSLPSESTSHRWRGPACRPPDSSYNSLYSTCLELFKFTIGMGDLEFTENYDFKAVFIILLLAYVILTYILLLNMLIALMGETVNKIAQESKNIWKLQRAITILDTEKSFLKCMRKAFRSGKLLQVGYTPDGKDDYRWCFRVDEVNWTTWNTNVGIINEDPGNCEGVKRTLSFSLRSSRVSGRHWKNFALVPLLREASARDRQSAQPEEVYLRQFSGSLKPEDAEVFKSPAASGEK
#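 TRPV1-expressing cells were cultured overnight at 35.5C and loaded with Fluo-8 calcium dye for 40 to 90 min at room temperature. After a 10 s baseline, compound was added and calcium influx was read kinetically for 3 min (ex 480/em 520 nm).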
# gsp ag – agonists of gsp mutant (McCune-Albright syndrome) | 340,000 tested, 0.13% active | Potency, µM (titrated, usually from 76.9 µM), for the others: at the highest dose activation (cAMP increase), usual class: activators | gsp mutant cells, cAMP HTRF, 30 min; control for the full effect not named in the record | AID 624287; active = well fitted activation curve with a large enough effect; inconclusive = small, poorly fitted or top-dose-only effect, or another doubt; inactive = no such curve, though single readings can be large or run the other way; cell line not stated here;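 also: phosphodiesterase inhibitor Ro 20-1724 added with compounds to block cAMP breakdown; potency is read from the fitted curve at half-maximal effect; nearly all actives have a fitted effect of over 60% in size; about a fifth of the inactives were tested at one dose only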
#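 Cells in DMEM/10% FBS with G418 were pretreated with compounds in DMSO plus […] (300 uM stock) for 30 min at 37C. cAMP was measured by HTRF (cAMP-d2 plus anti-cAMP antibody-K) after 30 min at room temperature.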
# ClpP mod – qHTS Assay for Activators of ClpP; ATP-dependent Clp protease proteolytic subunit (Bacillus subtilis (strain 168)), P80244; purified B. subtilis ClpP, FRET peptide cleavage, 20 min; Potency, µM (titrated, usually from 57.5 µM), for the others: at the highest dose activity change, negative = active; 340,000 tested, 1.9% active; active = well fitted falling curve with a large enough effect; inconclusive = small, poorly fitted or top-dose-only effect; inactive = no such curve, though single readings can be large or run the other way; also: potency is read from the fitted curve at half-maximal effect; the source files actives as falling curves though it sought activators and does not explain the sign; nearly all actives have a fitted effect of over 65% in size; many hits overshoot -100%
#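 Purified B. subtilis ClpP, 10 microg/mL final in Tris/HCl pH8 with KCl, BSA, glycerol and Tween-20, cleaved an Abz/nitrotyrosine-quenched decapeptide. Fluorescence (ex 320, em 430) was read at 0 and 20 min at room temperature. Delta was normalized to 5.8 microM ADEP and DMSO/no-enzyme controls.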
# The depositor's hits bear a star; ? = inconclusive; . = not tested or not shown. An excerpt (hit frequency here may not be typical).
SMILES,TRPML1 blocker,TRPV1 potentiator,gsp ag,ClpP mod
COc1cccc2cc(C(=O)N(Cc3cccs3)Cc3cccs3)c(=O)oc12,.,.,.,-1.2%
COc1ccccc1-c1csc(C(NC(C)=O)c2ccccc2)n1 (stereo not drawn),.,.,.,0.0%
COc1cccc(NC(=O)C2(C)CCN2C(=O)CC2CC2)c1 (stereo not drawn),.,.,.,-0.2%
CCc1ccc(C2CC3C(CN2S(=O)(=O)c2ccc(C)cc2)[C@@H](O)C[C@@H](c2ccc(CC)cc2)N3S(=O)(=O)c2ccc(C)cc2)cc1 (stereo partly drawn),.,.,.,-1.4%
COC(=O)c1ccc(N2C(c3cc(OC)cc(OC)c3)=Cc3ccc(-c4ccc(C(N)=O)cc4)cc3C2CC(=O)C2CC2)cc1 (stereo not drawn),.,.,.,4.7%
COc1cc(OC)c(/C=C/c2cc3ccccc3c[n+]2C)c(OC)c1,.,.,.,-2.0%
O=C(NCc1cccnc1)c1ccc2sc([C@H]3C[C@H](O)[C@@H](CO)O3)nc2c1,.,.,.,1.1%
OC[C@@H]1CN(Cc2ccc(F)cc2)C[C@H](n2cnc3c(NCc4ccncc4)ncnc32)O1,.,.,.,0.0%
COc1ccc(Br)c(Cn2c(C)c(C(=O)NCc3ccc4c(c3)OCCO4)sc2=O)c1,.,.,.,0.6%
FC(F)(F)c1cc(Cl)c2nc(-c3ccccc3)c(Cc3cccc(Cl)c3)n2c1,.,.,.,-9.4%
CN(C)CCCNC(=O)OC1CC2CC1[C@H]1CCCCN1C2=O (stereo partly drawn),.,.,.,1.7%
O=C1NC[C@@H](CCCCN2C[C@H](Cc3ccccc3)N(CCC3CCCCC3)C(=O)C2=O)N(CC2CCCCC2)C1=O,.,.,.,-2.8%
Cn1nc(C(C)(C)C)cc1C(=O)N1CCCC(C)(C(=O)NS(=O)(=O)C2CC2)C1 (stereo not drawn),.,.,.,2.3%
CC1(C(=O)NS(=O)(=O)c2ccc(Cl)cc2)CCN1C(=O)CC1CC1 (stereo not drawn),.,.,.,-0.1%
O=C1c2ccccc2C(c2nnnn2-c2ccc3c(c2)OCCO3)N1CCCn1ccnc1 (stereo not drawn),.,.,.,-1.8%
COc1ccc(-c2ccc(C(=O)NCCN3CCOCC3)c3occc23)c(C)c1,.,.,.,4.7%
COC(=O)[C@@]12C[C@@H](CC(=O)N3CCSCC3)C(=O)N(Cc3ccccc3)C1=CCC(C)(C)C2,.,.,.,-0.3%
CCCOc1ccc(F)cc1-c1cc(C(=O)Nc2ccc(OC)cc2OC)[nH]n1,.,.,.,-15.2%
CC1(Cc2ccc(C(F)(F)F)o2)C(=O)Nc2ccc(-c3cccc(C(F)(F)F)c3)cc21 (stereo not drawn),.,.,.,-17.4%
COc1ccc(CN2C(=O)CCC2(C)c2nnnn2Cc2ccccc2)cc1 (stereo not drawn),.,.,.,-4.7%
O=C(NCc1cc(Cl)cc(Cl)c1)c1ccc2nc(COCCO)[nH]c2c1,.,.,.,-1.8%
CCCCCCCCN1C(=O)[C@H](CC(=O)NCCCOCCCC)C[C@@]2(C(=O)OCC)CCCC=C12,.,.,.,1.0%
Cc1ccccc1S(=O)(=O)NC(=O)C1(C)CCN1C(=O)C/C=C/c1ccccc1 (stereo not drawn),.,.,.,-1.2%
CC(=O)N1CCN(Cc2cc(=O)oc3ccc4ccccc4c23)CC1,.,.,.,-7.4%
Nc1[nH]c(C(=O)c2ccccc2)c(-c2c(F)cccc2F)c1C(=O)c1ccc(Cl)c(Cl)c1,.,.,.,-0.4%
COc1cccc(-c2cnc3c(NC=O)cc(-c4ccc(N(C)C)cc4)cn23)c1,.,.,.,-19.9%
CC(=O)Nc1cccc(-c2ccnc3c2CC(C(=O)Nc2ccc(C(C)C)cc2)O3)c1 (stereo not drawn),.,.,.,-6.9%
O=C1NC[C@H](CCCCN2C[C@H](Cc3ccc(O)cc3)N(Cc3ccccc3)C(=O)C2=O)N(CC2CCCCC2)C1=O,.,.,.,-3.9%
O=C1C(=Cc2ccccc2Cl)CCc2ccccc21,.,.,.,-2.5%
CC(=O)NCCNC(=O)C1(C)Cc2c(-c3cccc(C(F)(F)F)c3)ccnc2O1 (stereo not drawn),.,.,.,-9.7%
Cc1cccc(S(=O)(=O)NC(=O)C2(C)CCN2C(=O)Cc2ccc(Cl)cc2Cl)c1 (stereo not drawn),.,.,.,-1.4%
O=C(NCc1ccccc1)c1cc(C2COCCN2C(=O)C/C=C/c2ccccc2)on1 (stereo not drawn),.,.,.,0.2%
C#CCNC(=O)C[C@@H]1C[C@@]2(C(=O)OCC)CCCC=C2N(Cc2ccco2)C1=O,.,.,.,2.0%
O=S(=O)(Nc1cccc2cccnc12)c1cccc2cccnc12,-4.5,16.1,.,.
O=S(=O)(Nc1c(Br)cc(Br)c2cccnc12)C1CCCCC1,-4.4,10.1,.,.
O=S(=O)(Nc1cccc2ccccc12)c1cccc2ccccc12,9.0,8.5,.,.
CC(=O)Nc1cccc2cccnc12,-21.2,-6.3,.,.
O=S(=O)(Nc1cccc2cccnc12)c1cccc2ccccc12,-22.5,6.8,.,.
O=C1C2C3CCCC3=C3CCCC3C2C(=O)N1c1ccccc1Cl (stereo not drawn),-6.9,10.2,.,.
O=C(NCCc1nc2ccccc2n1CCOc1ccc(Cl)cc1)C1CCCCC1,63.3,-8.7,.,.
Nc1c(Br)cc(Br)c2cccnc12,2.3,-5.0,.,.
Nc1cc(C(F)(F)F)ccc1S(=O)(=O)Nc1cccc2c1NCCC2,-21.8,-8.5,.,.
O=S(=O)(Nc1cccc2cccnc12)c1cccs1,-5.3,7.3,.,.
Cc1ccc(F)c(Cn2cnc3c(cnn3C(C)(C)C)c2=O)c1Cl,13.7,-4.7,.,.
CC(=O)Nc1ccccc1NS(=O)(=O)c1ccccc1NO,5.3,2.9,.,.
O=C(CCCl)Nc1cccc2cccnc12,-5.1,29.0,.,.
O=C(CCBr)Nc1cccc2cccnc12,-0.9,-7.2,.,.
CC(NC(=O)COC(=O)c1ccco1)C12CC3CC(CC(C3)C1)C2 (stereo not drawn),-0.4,9.6,.,.
Cc1ccc(S(=O)(=O)N2C[C@@H](C)[C@]3(C2)[C@H](O)[C@H](OC(=O)NC2CCCC2)C[C@H]2C(=O)N(c4ccccc4)C(=O)[C@H]23)cc1,.,.,-1.0%,0.5%
CS(=O)(=O)Nc1ccc2c(c1)[C@H]1C[C@H](CC(=O)NCc3ccccc3)O[C@H](CO)[C@H]1O2,.,.,?,-0.5%
COc1ccc(NC(=O)C[C@H]2C(=O)N(Cc3ccccc3)C[C@@H]2CSC)cc1,.,.,21.5%,-2.1%
CSc1ncnc2c1ncn2CCCNC1CCN(Cc2ccccc2)CC1,.,.,-16.4%,1.2%
O=C(OCc1cn([C@H]2CN(CC3CCCCC3)[C@@H](c3ccc(Cl)cc3)C[C@@H]2O)nn1)c1ccccc1,.,.,-0.1%,-1.5%
C[C@H](CO)N1C[C@H](C)[C@H](CN(C)Cc2cccc(C(F)(F)F)c2)OCc2ccccc2-c2c(n(C)c3ccccc23)C1=O,.,.,-7.7%,1.3%
COCOCCn1cc(CN2CCS(=O)(=O)N(Cc3ccc(-c4ccc(OC)nc4)cc3)C(C)C2=O)nn1 (stereo not drawn),.,.,0.8%,-3.1%
COc1ncnc2c1ncn2CCCNCc1ccccc1,.,.,?,-1.1%
C[C@H](CO)N1C[C@H](C)[C@@H](CN(C)S(C)(=O)=O)OCc2cnnn2CCCC1=O,.,.,20.6%,-2.0%
CCOC(=O)c1ccc(NC(=O)c2nc[nH]c2C(=O)NC[C@@H](C)O)cc1,.,.,?,-0.7%
CC(C)NC(=O)N(C)C[C@@H]1OCc2cnnn2CCCC(=O)N([C@H](C)CO)C[C@H]1C,.,.,-21.9%,-0.5%
Cc1cc(CNC[C@H]2O[C@@H](n3cnc4c(N)ncnc43)[C@H](O)[C@@H]2O)no1,.,.,26.1%,1.1%

# (list continues)
SMILES,TRPML1 blocker,TRPV1 potentiator,gsp ag,ClpP mod
CCOC(=O)c1ccc(NC(=O)c2nc[nH]c2C(=O)NC[C@H](C)O)cc1,.,.,-33.9%,-1.4%
CCC[C@H]1CN(c2ccccc2)C(=O)[C@@H]1CC(=O)Nc1ccccc1,.,.,1.4%,-0.6%
C[C@H]1CN([C@@H](C)CO)C(=O)CCCn2cc(nn2)CO[C@@H]1CN(C)C(=O)Nc1ccc(C(C)(C)C)cc1,.,.,-16.3%,-0.7%
C[C@H](O)[C@@H]1CN2CCc3c([nH]c4ccc(-c5ccc6c(c5)OCO6)cc34)[C@@H]2C[C@@H]1N(C)C(=O)Nc1ccc(F)cc1,.,.,17.4%,-17.6%
COc1ccc(NC(=O)N(C)C[C@@H]2OCc3cnnn3CCCC(=O)N([C@@H](C)CO)C[C@H]2C)cc1,.,.,-3.9%,2.2%
C[C@@H]1CN([C@@H](C)CO)C(=O)CCCn2nncc2CO[C@@H]1CN(C)S(=O)(=O)c1ccccc1F,.,.,10.4%,-0.7%
CCOC(=O)c1ccc(NC(=O)c2nc[nH]c2C(=O)N[C@H](C)CO)cc1,.,.,?,0.7%
C[C@@H]1CN([C@@H](C)CO)C(=O)c2cc(Br)cnc2O[C@H]1CN(C)C(=O)c1ccccc1F,.,.,12.9%,-2.0%
